Screens as filed in PubChem BioAssay.
FGF22 binding = binders of human FGF22 protein, primary screen, FGF22 synaptogenesis inhibitor project, biophysical, thermal shift, single point; calls only at 9.99 µM; AID 651658, 2012; Fibroblast growth factor 22 (Homo sapiens), Q9HCT0; recombinant FGF22 thermal shift, SYPRO orange fluorescence; percent of sucrose octasulfate shift, DMSO zero; 340,000 tested, 1.5% active;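 active means melting point raised past a set limit in the mean and every replicate; three in four hits are not shown here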
Target sequence (Q9HCT0 whole entry, looked up): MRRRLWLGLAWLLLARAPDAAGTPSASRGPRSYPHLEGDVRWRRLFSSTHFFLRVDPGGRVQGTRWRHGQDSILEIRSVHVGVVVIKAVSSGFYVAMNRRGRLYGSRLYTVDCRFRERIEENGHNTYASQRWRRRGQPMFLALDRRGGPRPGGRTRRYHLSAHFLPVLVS
HNF4A DNA FP = change in binding of human HNF4A to DNA, primary screen, biochemical, fluorescence polarization, FITC-DNA. Hepatocyte nuclear factor 4-alpha (Homo sapiens), P41235. 1 h. activity change, % at 10 µM. 360,000 tested, 0.3% active; in the data active means activity change above about 30%, passing the limit was not always enough;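 further: controls were the assay level and a saturating level of protein; the project sought stronger binding though the title names inhibitors; some compounds called inactive have numbers as strong as hits; positive values seem to mean higher polarization but the record does not say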
Target sequence (P41235 whole entry, looked up): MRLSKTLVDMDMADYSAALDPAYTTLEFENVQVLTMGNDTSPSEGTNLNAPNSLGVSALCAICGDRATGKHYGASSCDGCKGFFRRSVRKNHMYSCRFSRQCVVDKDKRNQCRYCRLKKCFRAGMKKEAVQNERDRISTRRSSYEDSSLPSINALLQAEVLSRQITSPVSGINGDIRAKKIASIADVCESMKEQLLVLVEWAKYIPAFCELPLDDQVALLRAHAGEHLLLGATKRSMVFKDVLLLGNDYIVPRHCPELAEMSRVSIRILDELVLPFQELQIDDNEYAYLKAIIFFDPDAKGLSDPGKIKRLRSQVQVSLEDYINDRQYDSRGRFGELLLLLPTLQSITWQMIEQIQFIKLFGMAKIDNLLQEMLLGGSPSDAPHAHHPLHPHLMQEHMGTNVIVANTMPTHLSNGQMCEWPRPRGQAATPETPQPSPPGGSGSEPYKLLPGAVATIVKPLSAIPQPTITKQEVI
* = called active by the depositor; i = inactive; . = not tested or not shown. This is a subset (hit frequency here may not be typical).

Results follow in this order: FGF22 binding	HNF4A DNA FP
CC(=O)N1CCN(C(=O)c2[nH]c(C(F)(F)F)nc2-c2ccccc2)CC1
  i	0.6
COC(=O)C[C@H]1C[C@@H]2c3cc(NS(=O)(=O)c4ccc(OC)cc4)ccc3O[C@@H]2[C@H](CO)O1
  i	2.9
O=C(O)c1ccc(NC(=O)C2CCN(S(=O)(=O)c3ccc4c(c3)OCCO4)CC2)cc1
  i	-0.6
COc1ccc(S(=O)(=O)N2CCC(C(=O)N[C@@H](C)C(=O)NCc3ccco3)CC2)cc1
  i	-1.8
O=C(c1[nH]c(C(F)(F)F)nc1-c1ccccc1)N1CCN(c2ncccn2)CC1
  i	-1.8
COCc1cccc(-c2csc(C(NC(C)=O)c3cccc(OC)c3)n2)c1 (stereo unspecified)
  i	2.2
O=C(OCc1ccccc1)N1CCC2CC1c1ccc(-c3cccc(F)c3)cc12 (stereo unspecified)
  i	1.4
CCCCNC(=O)C1(C)CCCCN1C(=O)c1sccc1C (stereo unspecified)
  i	-2.2
COc1ccc(Cc2c(-c3ccccc3)nc3ccc(Br)cn23)c(C)c1
  i	24
CC(=O)O[C@H]1[C@@H](O)[C@H](O)[C@H](Oc2c(O)c(C)c3c4c2[C@@H](C)CC[C@@H]4[C@@H](C)C[C@@H]3C=C(C)C)O[C@H]1C
  i	4.6
CC(=O)c1cccc(-c2cnc3c(NC=O)cc(-c4ccccc4)cn23)c1
  i	4.1
CCn1ncc(CN2CCC(n3nccc3NC(=O)c3ccccc3Cl)CC2)c1C
  i	3.8
CCCCN1C[C@H](Cc2ccccc2)[C@@H](CC(=O)Nc2ccc(OC)cc2)C1=O
  i	4.9
COc1cccc(-c2cc(NC=O)c3ncc(-c4ccc(F)c(Cl)c4)n3c2)c1
  i	7.1
O=C(Nc1ccc(F)cc1)C(CCc1ccccc1)N1CCN(CC(=O)N2CCCC2)CC1 (stereo unspecified)
  i	-1.2
CCN(CC)C(=O)C1=C(C)N(Cc2ccc(OC)cc2)C(=O)C(CC(=O)NC2CCCC2)C1 (stereo unspecified)
  i	1.4
COc1cccc(-c2cnc(C(O)c3ccc(Cl)cc3)[nH]2)c1 (stereo unspecified)
  i	-4.0
CC(=O)C1=CCC(c2cccc(Cl)c2)N(S(=O)(=O)c2ccc(C)cc2)C1 (stereo unspecified)
  i	-1.4
Cc1ccc(NC(=O)CCS(=O)(=O)c2ccc3nc(C)sc3c2)c(C)c1
  i	8.2
Cn1ccc2c(-c3cccnc3)cc3c(c21)C1CCC3C1 (stereo unspecified)
  i	-3.3
Nc1ncnc2c1ncn2[C@@H]1O[C@H](C(=O)N[C@H]2c3ccccc3C[C@H]2O)[C@@H](O)[C@H]1O
  i	1.7
COCc1cn(CC(=O)c2sc(NC(=O)C(C)(C)C)nc2C)nn1
  i	0.0
CC(C)C[C@@H]1O[C@H](C(C)C)Cc2[nH][nH]c(=O)c21
  i	-1.4
COc1ccc(NC(=O)c2cc(C3CCCCN3S(=O)(=O)c3cn(C)cn3)on2)c(C)c1 (stereo unspecified)
  i	2.8
CN1C2C=CC(=O)C1C1C(=O)N(c3ccccc3)C(=O)C12 (stereo unspecified)
  i	2.9
CSCCC(C(=O)Nc1c(C)cccc1C)n1c(COc2ccc(C)cc2)nc2ccccc21 (stereo unspecified)
  .	-1.8
O=C(COC(=O)c1ccc2c(c1)OCCO2)Nc1ccccc1C(F)(F)F
  i	-3.7
CCN(CC)C(=O)Cn1cc(SCC(=O)NC2CCCCC2)c2ccccc21
  i	-2.8
O=C(CCOc1ccccc1)N1CCCC(Nc2ccccc2)C1 (stereo unspecified)
  i	-5.5
Cc1cn([C@H]2C[C@H](O)[C@@H](CCC(=O)NCc3cccs3)O2)c(=O)[nH]c1=O
  i	-1.3
CN1CCN2c3ccccc3CC(C#N)(C#N)C2C1 (stereo unspecified)
  i	1.0
CC(=O)Nc1cccc(-c2ccnc3c2CC(C(=O)NCc2ccc(N4CCN(C)CC4)cc2)O3)c1 (stereo unspecified)
  i	-0.2
Cc1ccc(S(=O)(=O)Nc2ccc(Nc3nccn4c(-c5ccccc5Oc5ccccc5)cnc34)cc2)cc1
  i	8.0
O=[N+]([O-])c1ccc(C=CC=Cc2ccccc2)cc1
  i	26
CC(C)C[C@H]1CNC(=S)N1C[C@H]1CCCN1C[C@H](Cc1ccc(O)cc1)N1C[C@H](CC(C)C)N(CC2CCCCCC2)C1=S
  i	-2.1
O=C1NC[C@H](CCCCN2C[C@H](Cc3ccccc3)N(CCC3CCCCC3)C(=O)C2=O)N(CCC2CCCCC2)C1=O
  i	3.8
COCCNC(=O)C1CCCN(C(=O)c2ccc3c(c2)C(C)(C)CCC3(C)C)CC1 (stereo unspecified)
  i	-0.2
C[C@@H]1CCCCO[C@H](CN(C)S(=O)(=O)c2cccs2)[C@H](C)CN([C@@H](C)CO)C(=O)c2cc(NC(=O)NC3CCCCC3)ccc2O1
  i	2.0
Cc1cc(C)c(C(O)c2ncc(-c3cccc4ccccc34)[nH]2)c(C)c1 (stereo unspecified)
  i	-3.0
Cc1cc(OCC(=O)OC(C)C(=O)NC2CC2)c(C(C)C)cc1Cl (stereo unspecified)
  i	1.2
OC1C2COC(O2)C2OC(c3ccccc3)OC12 (stereo unspecified)
  i	0.1
COCCNc1nc(Nc2ccccc2Cl)c2sc(-c3ccccc3)cc2n1
  i	2.3
CCc1nc2c(OCc3ccccc3C)cccn2c1N(C)C(=O)c1ccc(C)cc1
  i	-1.1
Cc1ccc(C(O)c2ncc(-c3ccccc3Cl)[nH]2)c(C)c1 (stereo unspecified)
  i	0.9
CCc1nc2c(OCc3ccc(Cl)cc3Cl)cccn2c1N(C)C(=O)C1CC1
  i	2.0
O=C(NNc1ccccc1)OCc1ccccc1
  i	4.5
CCOC(=O)C1CCCN(C(=O)c2ccc(F)c(C)c2)CC1 (stereo unspecified)
  i	2.8
COc1cc(CNc2ncnc3c2ncn3[C@H]2CN(Cc3ccc(Cl)cc3)C[C@@H](CO)O2)cc(OC)c1OC
  i	4.9
CC(C)C[C@H]1CN(CCCC[C@@H]2CNC(=O)C(=O)N2CC2CCCCC2)C(=O)C(=O)N1CCc1ccccc1
  i	-0.2
CCCCOc1ccc(S(=O)(=O)NC(=O)C2(C)CCN2C(=O)c2c(C)noc2C)cc1 (stereo unspecified)
  i	0.8

The results go on.
Results follow in this order: FGF22 binding	HNF4A DNA FP
Cc1ccc(CN2CC(C(=O)Nc3nc(C)cs3)CC2=O)cc1 (stereo unspecified)
  i	1.4
CC(O)(c1cccnc1)c1nc(/C=C/c2ccccc2)cs1 (stereo unspecified)
  i	0.5
COC(=O)c1cc(S(=O)(=O)NCC(C)c2ccccc2)c[nH]1 (stereo unspecified)
  i	-1.7
COc1ccccc1C(=O)NNC(=O)c1ccc2ccccc2c1O
  i	-1.7
C[C@H](O)[C@@H]1CN2CCc3c([nH]c4ccccc34)[C@@H]2C[C@@H]1N(C)C(=S)Nc1ccc(C#N)cc1
  i	2.0
Clc1ccccc1NN(Cc1ccncc1)c1ccccc1Cl
  i	1.9
COc1ccccc1Cc1c(-c2ccccc2)nc2ccc(Cl)cn12
  i	12
CC(=O)c1cccc(-c2ccc3c(c2)C(C)(Cc2ccccc2F)C(=O)N3)c1 (stereo unspecified)
  i	-0.4
O=C(Nc1cccc2ccccc12)c1csc([C@@H]2O[C@H](CO)[C@@H](O)[C@H]2O)n1
  i	-1.8
COc1cccc(-c2nnc(NC(=O)CCS(=O)(=O)c3ccc(F)cc3)o2)c1
  i	-1.8
CN(C)C(=O)c1cccc(-c2cnc3c(NC=O)cc(-c4ccccc4F)cn23)c1
  i	-0.7
COc1cccc(C(C(=O)NCc2ccccc2)N2CCN(C(=O)C3CCCO3)CC2)c1OC (stereo unspecified)
  i	-0.8
COc1cc(F)ccc1-c1csc(C(C)(O)c2ccc(F)c(F)c2)n1 (stereo unspecified)
  i	2.1
CC1=C(C(=O)N(C(C)C)C(C)C)CC(CC(=O)NCc2cccc3ccccc23)C(=O)N1CCC1=CCCCC1 (stereo unspecified)
  i	-1.8
CC1(C(=O)Nc2nccs2)CCN1C(=O)C1(c2ccccc2)CC1 (stereo unspecified)
  i	0.1
Cc1ccc(-c2cnc(C(O)c3ccc(C)cc3)[nH]2)cc1 (stereo unspecified)
  i	-0.5
N#Cc1ccc(CN(Nc2ccccc2)c2ccccc2)cc1
  i	-0.4
COC(=O)c1ccc2nc(-c3ccccc3)c(Cc3ccsc3)n2c1
  i	-4.3
Cc1cccc(CN2CCN(C3CN(Cc4ccc([N+](=O)[O-])cc4)S(=O)(=O)C3)CC2)c1 (stereo unspecified)
  i	1.3
CC(=O)Nc1cnc(-c2cccc(C(=O)N(C)C)c2)cn1
  i	-0.3

Copied from the list.
COc1cc(F)ccc1-c1csc(C(C)(O)c2ccc(F)c(F)c2)n1 (stereo unspecified) in HNF4A DNA FP: 2.1
CN(C)C(=O)c1cccc(-c2cnc3c(NC=O)cc(-c4ccccc4F)cn23)c1 in HNF4A DNA FP: -0.7

(listing goes on)
Results follow in this order: FGF22 binding	HNF4A DNA FP
COc1ccc(OC)c(NC(=O)C2(C)CCN2C(=O)C(C)(C)c2ccccc2)c1 (stereo unspecified)
  i	0.6
CCOC(=O)[C@]12CCC=C1N(Cc1cccc3ccccc13)C(=O)[C@H](CC(=O)NCc1ccc(OC)c(OC)c1)C2
  i	4.8
COc1ccc2oc(=O)cc(CN3CCN(Cc4ccccc4)CC3)c2c1
  i	0.3
COc1ccc(-c2cnc3c(NC(C)=O)cc(-c4cccc(C(=O)NCCN(C)C)c4)cn23)cc1OC
  i	2.5
CC1(C(=O)NS(=O)(=O)C2CC2)CCCN(C(=O)c2ccccc2)C1 (stereo unspecified)
  i	5.8
O=C(NC1CCCC1)C1C(c2ccc(C(F)(F)F)cc2)=Nc2ccccc2N1C(=O)c1ccccc1 (stereo unspecified)
  i	4.8
COC(=O)C[C@H]1CC[C@H](NC(=O)c2cccc(F)c2)[C@@H](CO)O1
  i	3.0
CCCCCCN1C[C@@H](n2cc(-c3ccc(F)cc3)nn2)[C@H](O)C[C@@H]1c1ccc(OC)cc1
  i	2.0
CC1(C(=O)NS(=O)(=O)c2ccc(Cl)cc2)CCN1C(=O)CCC1CCCC1 (stereo unspecified)
  i	1.0
Cc1ccc(S(=O)(=O)NC(=O)C2(C)CCN2C(=O)CC2CCCC2)nc1 (stereo unspecified)
  i	-3.5
CCOC(=O)[C@]12CCCC=C1N(Cc1ccc3c(c1)OCO3)C(=O)[C@H](CC(=O)N1CCN(C(=O)c3ccco3)CC1)C2
  i	2.6
Cc1cn([C@H]2C[C@H](O)[C@@H](/C=C/C(=O)NCc3ccco3)O2)c(=O)[nH]c1=O
  i	1.1
CN1C(=O)[C@@](O)(c2cn(C)c3ccccc23)c2cc(F)ccc21
  i	-0.5
N#Cc1cccc(NC(=O)c2cc(C3CCCCN3C(=O)CCCc3ccccc3)on2)c1 (stereo unspecified)
  i	1.1
COc1ccc([C@H]2C[C@H](O)[C@@H](n3cc(-c4ccc(F)cc4)nn3)CN2Cc2cccs2)cc1
  i	-0.6
C[C@H]1CN([C@@H](C)CO)C(=O)c2cc(Br)cnc2O[C@H]1CN(C)C(=O)C1CCC1
  i	-0.4
Cc1nnsc1-c1nc2ccccc2n1C(CCc1ccccc1)c1nc2ccccc2[nH]1 (stereo unspecified)
  i	-0.5
CN1CCN(c2cc(-c3cccc(C(=O)O)c3)nc3ccnn23)CC1
  i	2.6
NC(Cc1ccc(Cl)cc1)c1csc(NC(=O)Nc2ccccc2-c2ccccc2)n1 (stereo unspecified)
  i	1.7
CCCCn1c(O)c2n(c1=O)Cc1ccccc1N=C2c1ccccc1
  i	-0.5

One compound at a time (already shown).
Cc1cn([C@H]2C[C@H](O)[C@@H](/C=C/C(=O)NCc3ccco3)O2)c(=O)[nH]c1=O reads FGF22 binding = i; HNF4A DNA FP = 1.1
CN1CCN(c2cc(-c3cccc(C(=O)O)c3)nc3ccnn23)CC1 reads FGF22 binding = i; HNF4A DNA FP = 2.6
CCOC(=O)[C@]12CCCC=C1N(Cc1ccc3c(c1)OCO3)C(=O)[C@H](CC(=O)N1CCN(C(=O)c3ccco3)CC1)C2 reads FGF22 binding = i; HNF4A DNA FP = 2.6

(cont.)
Results follow in this order: FGF22 binding	HNF4A DNA FP
COc1ccc(C(C)(O)c2nc(-c3ccccc3)cs2)cc1 (stereo unspecified)
  i	-2.0
CC1=C(C(=O)N(C(C)C)C(C)C)CC(CC(=O)NCCc2ccccn2)C(=O)N1Cc1ccccc1 (stereo unspecified)
  i	-1.2
C=C1C(=O)OC2C1CCC(C)=CCCC1(C)OC21 (stereo unspecified)
  i	1.4
CN(Cc1ccccc1)C(=O)CCC1CCN(C(=O)c2ccco2)CC1
  i	-5.8
CCOC(=O)C1(C)C(=O)CC2c3nc4ccccc4cc3CN2C1=O (stereo unspecified)
  i	5.0
COCCNC(=O)C1(C)CCCN(C(=O)c2ccc(C(F)(F)F)cc2)C1 (stereo unspecified)
  i	-1.4
FC(F)(F)c1ccccc1Cc1c(C2CCCCC2)nc2c3ccccc3ccn12
  i	6.2
C#CCNC(=O)c1cc2c(Br)ccc(Br)c2nc1N
  i	4.8
NC(=O)c1cccc(-c2cccc3nccn23)c1
  i	4.0
COc1ccc(NC(=O)c2ccc(NC(=O)c3cccnc3)cc2)cc1
  i	0.1
